PrP 5UTR inh – suppresses PrP 5' UTR mRNA reporter expression; cell-based PrP 5' UTR mRNA reporter, plate reader; inhibition, % (concentration not given with the values); AID 488862; 340,000 tested, 0.35% active;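 active = every replicate at 50% or more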;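 also: 0 = median of the neutral control wells; tested in H4 reporter cells; numbers are from one replicate; inactives centre near -14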
BJeLR lethal – kills HRASV12-expressing BJeLR cells; AID 1554; 300,000 tested, 0.17% active; BJeLR (HRASV12) viability, CellTiter-Glo ATP luminescence, 48 h; reference of the scale not given here; inhibition, % (no concentration beside the values);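 active = replicate mean above 50%; inconclusive = above 50% but judged a plate artefact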;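 also: 50 nL library stock added to about 25 µL; numbers are from one replicate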
Autofluor counter – compound fluorescence in toxin protease inhibitor counterscreen; fluorescence intensity (no concentration beside the values); 360,000 tested, 3.1% active; compound autofluorescence counterscreen, microsphere flow cytometry; hits give high values;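 active = at least 3 SD above the mean of all compounds, about 16000 in these data; inconclusive = too few beads counted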;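 also: 100 nL of 1 mM stock went into each well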
Mtb hypoxia rep – reduces hypoxia-regulated biosensor signal in M. tuberculosis. M. tuberculosis hypoxia-regulated fluorescent reporter, fluorescence. fluorescence inhibition, % (test concentration not listed). 300,000 tested, 0.1% active. AID 1159583;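 active = 35 to 45% if threefold the growth effect, above 45% if 1.5-fold the growth effect; inactive = the rest, general growth blockers included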;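 also: wells of about 50 µL received 100 nL stock; 0% = vehicle wells and 100% = reference inhibitor wells; whole bacteria with a GFP reporter of the hypoxia response; strong numbers were not always called active; many hits fall short of the cut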
ugtP null kill – growth inhibition of S. aureus ugtP deletion strain; growth inhibition, % (test concentration not listed); S. aureus RN4220 ugtP deletion, OD600 growth, 16 h; some inactives read as strong as hits; 330,000 tested, 0.54% active;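 active = z-score under -3 and OD600 up to 0.15 on both plates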;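 also: plate controls were untreated wells for no effect and antibiotic for full effect; wells of about 80 µL received 100 nL stock; the first replicate is given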
RN4220 kill – S. aureus RN4220 growth inhibition. OD600, 16 h. inhibition, % (no concentration beside the values). 330,000 tested, 0.33% active. AID 1259311;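 active = z-score of -3 or lower and OD600 up to 0.18 on both plates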;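 also: plate controls were untreated cells for no effect and reference antibiotic for full effect; stock transfer was 100 nL into about 80 µL; one replicate is shown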
Mtb hypoxia rep growth – also measured in Mtb hypoxia rep; calls as there; growth inhibition, %; measured here: M. tuberculosis growth (absorbance);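 0% = vehicle and 100% = reference antibiotic; read after six days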
The depositor's hits bear a star; ? = inconclusive; · = not tested or not shown.

SMILES	PrP 5UTR inh	BJeLR lethal	Autofluor counter	Mtb hypoxia rep	Mtb hypoxia rep growth	ugtP null kill	RN4220 kill
COCCNC(=O)c1cccc(OC2CCN(Cc3ccccc3OC(F)F)CC2)c1	-29	0	3445	-4	0	1	4.6
CCOC(=O)C1=C(C)N(c2ccc(Cl)cc2)C(=O)NC1c1cccc([N+](=O)[O-])c1 (stereo not given)	-13	7	2007	10	4	-12	-4.4
COc1ccc(CCNS(=O)(=O)c2ccccc2)cc1OC	0	11	2524	·	·	6	2.1
Cn1c(=O)c2c(ncn2CC(=O)NCc2cccnc2)n(C)c1=O	-1	-3	3067	-3	3	-2	-1.2
O=C(/C=C/c1ccco1)Nc1ccc(N2CCCC2)cc1	-6	-5	1963	12	7	-5	2.2
CCOC(=O)c1c(C)n(Cc2ccccc2)c2ccc(OCC(O)CN3C(=O)CNC3=O)cc12 (stereo not given)	-17	-13	12925	10	-4	-8	4.3
CC(C)C(OC(=O)c1ccco1)C(=O)NCc1ccco1 (stereo not given)	-9	-5	3424	4	2	7	2.7
Cc1cc(C)cc(NC(=S)NC(=O)C2CC2)c1	-19	-17	6964	14	-7	11	3.1
CCOc1ccc(S(=O)(=O)Nc2ccc(Cl)cn2)c(C)c1C	-14	5	9258	3	2	-8	-0.5
CCCCCCOC(=O)NCC(O)c1ccccc1 (stereo not given)	-20	-2	17552*	-4	-3	-10	0.1
CN(C)c1ccc(C=NN(CCC#N)C2=NS(=O)(=O)c3ccccc32)cc1	·	·	·	-6	-1	-3	8.5
CCC(C)N=CC1=C(O)C(C(=O)OC)C(C)(C)CC1=O (stereo not given)	-9	0	2654	·	·	-1	3.1
CSCCC(NC(=O)c1ccccc1Cl)C(=O)NNC(=O)c1ccccc1O (stereo not given)	-23	-1	?	15	2	4	7.2
CCn1nnc(-c2ccccc2NC(=O)c2cc(OC)cc(OC)c2)n1	-18	6	7997	1	7	-8	3.2
Cc1[nH]c2ccccc2c1C(O)CN1CCN(c2cccc(C(F)(F)F)c2)CC1 (stereo not given)	-4	15	3693	·	·	·	·
CCN(Cc1ccccc1)S(=O)(=O)CCNC(=O)c1ccc(OC)cc1	-14	1	·	10	12	3	1.2
O=C(CSc1nc2ccccc2c(=O)[nH]1)Nc1ccccc1N1CCOCC1	5	16	3329	15	7	-56	26
CC/C(=N/NC(=O)c1ccc2c(c1)OCO2)c1ccccc1O	-5	20	4650	·	·	·	·
Cn1c(=O)c2c(ncn2CC(=O)OCc2ccccc2)n(C)c1=O	-1	1	?	3	14	-2	3.9
Fc1cc(F)c(F)c(SCCc2ccncc2)c1F	-6	-5	3119	19	10	12	14
CCC(=O)N1CCN(c2cc(NCC3CCCO3)c(F)cc2[N+](=O)[O-])CC1 (stereo not given)	1	8	5289	-2	-2	7	1.4
O=C(c1cc(-c2ccccc2O)on1)N1CCCC1	-58	-1	6203	8	13	-6	9.5
CC(NC(=O)Cn1nc(C(F)(F)F)c2c1CCC2)c1ccccc1 (stereo not given)	-1	1	?	5	2	4	3.6
Cc1onc(-c2ccccc2)c1C(=O)NCc1ccccn1	-6	-22	2788	·	·	0	-1.1
CNC(=O)c1cccc(N2CCCC2=O)c1	-29	-1	2809	·	·	0	1.0
O=C(c1ccc2c(c1)C(=O)N(CCCO)C2=O)c1ccc2c(c1)C(=O)N(CCCO)C2=O	-10	·	3740	·	·	-2	-3.5
CCCC(C)NC(=O)COc1ccc(S(=O)(=O)c2ccc(OCC(=O)NC(C)CCC)cc2)cc1 (stereo not given)	-17	2	1981	11	5	15	0.7
CCCNC(=S)NNC(=O)c1cc(-c2cccnc2)nc2ccccc12	4	12	·	8	-1	2	-1.2
COC(=O)c1nc(NC(=O)c2ccc(Br)cc2)n[nH]1	-16	-3	2334	·	·	8	2.4
Cc1ccc(C(=O)N2CCN(Cc3ccccc3)CC2)o1	5	-4	5316	·	·	1	2.6
COc1ccccc1N1CCN(C(=O)c2ccc(C(C)(C)C)cc2)CC1	-14	-1	3558	·	·	4	3.3
Cc1ccc(S(=O)(=O)N2CCOCC2)cc1C(=O)NCc1cccs1	-16	-16	4894	10	21	-5	1.9
COC(=O)CSc1nc(C2CC2)cc(C(F)(F)F)c1C#N	-16	-8	3930	3	8	3	4.0
COc1ccc(CC2(CO)CCN(Cc3ccc(NC(C)=O)cc3)CC2)cc1	-2	2	3496	4	10	9	2.6
CC1(C(=O)O)CCC(C(=O)Nc2ccc(S(N)(=O)=O)cc2)C1(C)C (stereo not given)	-30	-10	2879	10	9	1	6.2
Cc1cc(N/N=C/c2cccc(Br)c2)nc2ccccc12	-51	-18	1929	·	·	·	·
COc1ccc(-c2nc(N)n[nH]2)cc1OC	-21	-1	4753	·	·	-3	5.3
Cc1ccccc1C(=O)Oc1ccc(-c2csnn2)cc1	-55	6	4430	12	-2	-3	9.5
COc1ccc(CN(C)C(=O)c2ccc(NC(=O)CC3SC(N4CCCCC4)=NC3=O)cc2)c(OC)c1 (stereo not given)	3	·	3023	0	1	-4	0.7
Cc1ccc(Cl)cc1N1CCN(CC(O)COC(C)C)CC1 (stereo not given)	-12	-4	5694	1	-12	4	10
COc1ccc(CC(=O)NNC(=O)c2cc(Cl)ccc2OC)cc1	2	·	5001	4	7	8	3.9
COc1ccccc1N1CCN(C(c2cccs2)C(C)NC(=O)c2cccnc2)CC1 (stereo not given)	3	-1	5796	-4	3	-7	-4.6
C/C(=N\NC(=O)C(N)=O)c1cccc(C(F)(F)F)c1	-19	3	5194	·	·	·	·
CCCCC(=O)NC(Nc1nc(C2CC2)cs1)(C(=O)OCC)C(F)(F)F (stereo not given)	-17	6	3182	·	·	-2	1.3
CCCC1OC(c2ccco2)OCC1CC (stereo not given)	-4	·	2977	6	3	7	3.5
CC(C)(C)N1CC(C(=O)O)CC1=O (stereo not given)	-18	·	3752	-7	3	-3	-2.0
O=C(NCC1CCCO1)c1ccc2c(=O)n(Cc3ccco3)c(SCC(=O)N3CCCC3)nc2c1 (stereo not given)	-29	0	5059	2	9	-16	3.3
CCN(CC)Cc1c(C(=O)NN=Cc2cccs2)nnn1-c1nonc1N	·	·	·	8	0	4	2.8
CCN(CC)CCOC(=O)c1ccc([N+](=O)[O-])cc1	-7	12	5623	-2	2	8	5.7
O=C(N1CCCCC1)C12CC3CC(C1)CC(C(=O)N1CCCCC1)(C3)C2	-5	-5	3060	·	·	5	0.4

The listing continues.
SMILES	PrP 5UTR inh	BJeLR lethal	Autofluor counter	Mtb hypoxia rep	Mtb hypoxia rep growth	ugtP null kill	RN4220 kill
CC(C)CC(=O)N(c1nnc(-c2cccnc2)s1)C1CCCC1	-8	19	3772	-4	18	-3	-2.3
CCc1ccc(NC(=O)CN2CCc3ccccc3C2)cc1	-16	15	15391	1	-2	13	2.2
COc1ccc(CCNC(=O)CSc2nnc3ccc(-c4cccnc4)nn23)cc1OC	-10	18	5722	0	-4	-10	-1.1
CCCCCCCCC(=O)NN=C(C)c1ccc(O)cc1O	·	·	·	-13	-9	-10	-7.5
CCN(CC)C(=O)CSc1nnc(-c2cc3ccccc3cc2O)n1CC	-8	19	23212*	4	12	-4	-0.3
CC(=NNC(=S)NCc1ccccc1)c1ccco1	·	·	·	24	12	4	0.3
CC(=O)Nc1ccc(S(=O)(=O)NCCc2c[nH]c3ccc(C)cc23)cc1	3	-6	4059	2	12	1	1.7
CCOc1ccc(OCc2ccc(C(=O)NCC3CCCO3)o2)cc1 (stereo not given)	-19	-4	7639	6	9	8	2.7
COc1cc2c(cc1OC)CN(C(=O)CCOc1ccccc1)CC2	-10	-2	3694	-7	1	2	2.9
Cc1cccc(/C=N/NC(=O)c2cc(-c3cccnc3)nc3ccccc23)c1	-10	-11	4301	·	·	·	·

Just PrP 5UTR inh and BJeLR lethal, for some of the entries so far:
compound	PrP 5UTR inh	BJeLR lethal
CCOc1ccc(OCc2ccc(C(=O)NCC3CCCO3)o2)cc1 (stereo not given)	-19	-4
COc1cc2c(cc1OC)CN(C(=O)CCOc1ccccc1)CC2	-10	-2
Cc1cccc(/C=N/NC(=O)c2cc(-c3cccnc3)nc3ccccc23)c1	-10	-11

Going on with the list:
SMILES	PrP 5UTR inh	BJeLR lethal	Autofluor counter	Mtb hypoxia rep	Mtb hypoxia rep growth	ugtP null kill	RN4220 kill
COC(=O)c1ccc(CSc2nc3ccccc3c(=O)n2-c2ccccc2)o1	-4	-1	2435	2	6	-3	12
O=C(CN1CCCCC1)N/N=C/c1cc2ccccc2nc1Cl	-16	8	4522	·	·	·	·
Cc1cc(-c2ccccc2)nc(NN=Cc2ccccc2F)n1	·	·	·	-1	-11	-3	-2.1
CC(C)NC(=O)N(C)CC1Oc2ccc(NC(=O)Nc3ccc(C(F)(F)F)cc3)cc2C(=O)N(C(C)CO)CC1C (stereo not given)	·	·	·	5	8	-2	-1.1
Cc1ccc(S(=O)(=O)NC2CC(=O)N(c3ccc4c(c3)OCCO4)C2)cc1 (stereo not given)	-2	8	5281	11	2	6	-0.2
O=C(CNC(=O)c1ccc(Cl)cc1)OCCCOC(=O)CNC(=O)c1ccc(Cl)cc1	-15	7	5738	5	5	4	2.3
c1ccc(CCNc2cnccn2)cc1	14	-5	2921	0	-3	9	1.3
Clc1cccc(C=NNc2nnc(Cl)c3ccccc23)c1	·	·	·	3	5	-18	7.8
CCCOc1cc2c(C#N)c(N3CCCC3)nc(N)c2c(N)n1	-9	-6	2902	10	8	2	8.4
Fc1ccc2nc(C3CCCCN3Cc3nc(CC4CC4)no3)[nH]c2c1 (stereo not given)	4	-7	3064	·	·	·	·
c1ccc(C(c2ccccc2)c2noc(CN3CCN(CC4CC4)CC3)n2)cc1	-19	9	4539	15	9	4	38
CCCc1nc(SCC(=O)Nc2ccccc2)c2c(=O)n(C)c(=O)n(C)c2n1	-66	-6	6068	0	3	-4	5.5
COc1ccc(CNC(=O)C(C)OC(=O)CO/N=C(\C)c2ccc3c(c2)OCO3)cc1 (stereo not given)	-43	1	?	·	·	·	·
COc1ccc(Br)cc1/C=N/N1C(=O)CSC1=S	-13	-6	3175	·	·	·	·
Cc1noc(C)c1COC(=O)C1CCN(S(=O)(=O)c2c(Cl)cccc2Cl)CC1	-12	-2	5229	12	1	4	4.8
NC(=O)C1CCN(c2ccc(S(=O)(=O)N3CCCCC3)cc2[N+](=O)[O-])CC1	-16	·	3633	-1	4	-4	-1.2
CCN1CC2C3C(=O)N(Cc4ccccc4)C(=O)C3[C@](Cc3ccccc3)(C1=O)N2C(=O)c1ccc(Br)cc1 (stereo not given in full)	·	·	·	-3	5	-8	7.6
CCCCCCCCCCOC(=O)C[N+](C)(C)CC1CCCCC1O (stereo not given)	-25	12	2496	13	4	22	2.4
COc1ccccc1N(Cc1ccccc1)S(=O)(=O)c1cccc(C(=O)Nc2ccc(C(C)=O)cc2)c1	-21	2	11098	12	3	8	8.8
CCC(=O)NC(=S)Nc1ccc(NC(=O)COc2ccc(Cl)cc2Cl)cc1	-44	-9	10853	·	·	-11	13
C=CCC1(C#N)C(SC)=NC2=C(C(=O)CC(C)(C)C2)C1c1ccc(Br)cc1 (stereo not given)	-1	-4	2436	0	6	1	7.4
NS(=O)(=O)c1cc(C(=O)NNC(=O)c2ccc3c(c2)OCO3)ccc1Cl	-18	·	4025	4	-1	-3	-0.4
CCOC(=O)[C@@H]1[C@H]2COc3ccc(Br)cc3[C@@H]2N2C(=O)N(c3ccc(C)cc3)C(=O)[C@]12C	-25	-5	3435	·	·	·	·
CCc1n[nH]c(=S)n1N=Cc1c(O)ccc2ccccc12	·	·	·	7	-1	11	3.1
O=c1c2ccccc2nc(CN2CCCCCC2)n1-c1ccc(F)cc1	1	3	24642*	9	4	-3	4.1
Cc1ccc(NC(=O)CSc2ncnc3ccccc23)cc1S(=O)(=O)N1CCCCC1	-11	0	2906	13	-1	-1	1.6
CCCc1cc(N2CCCC(C(=O)Nc3c(OC)cccc3OC)C2)n2ncnc2n1 (stereo not given)	·	-1	6609	0	6	2	2.2
